# DUX4 inh: blocks DUX4-driven transcriptional activation; 293T-iDUX4 ZSCAN4-Gaussia luciferase reporter, 24 h; hits give low values; activity change, negative = inhibition, % (test concentration not listed); 0.8% of 37,000 active;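 active = -10% or lower and over 25 points stronger than a control reporter; inconclusive = -10% or lower with a smaller gap; inactive = above -10%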;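 also: 0% = median of neutral control wells and -100% = median of positive control wells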
# DUX4 inh difference: second read-out of DUX4 inh, no call of its own (marks repeat the call); Gaussia minus Italica difference, %; measured here: selective DUX4 reporter inhibition;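 worked out from the two reporters; negative = selective loss of the DUX4 reporter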
# DUX4 inh control: recorded beside DUX4 inh, whose call it bears; activity change, negative = inhibition, %; measured here: Italica tet-on control reporter;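 0 = neutral control and -100 = positive control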
# An asterisk follows results filed as active; ? = inconclusive; . = no result given.
SMILES,DUX4 inh,DUX4 inh difference,DUX4 inh control
COc1ccc(S(=O)(=O)Nc2ccc3c(c2)CC(=O)N([C@@H](C)CO)C[C@@H](C)[C@H](CN(C)CC2CC2)O3)cc1,-1.3,0.3,-1.6
C[C@H](CO)N1C[C@H](C)[C@@H](CN(C)S(=O)(=O)c2ccc(Cl)cc2)OCCCC[C@H](C)Oc2ccc(NS(=O)(=O)c3cn(C)cn3)cc2C1=O,-0.5,2.6,-3.0
C[C@@H]1CCCCO[C@H](CN(C)S(=O)(=O)c2cccs2)[C@@H](C)CN([C@@H](C)CO)C(=O)c2cc(NC(=O)c3ccccc3)ccc2O1,0.3,3.3,-3.0
C[C@H](CO)N1C[C@H](C)[C@@H](CN(C)Cc2ccccn2)Oc2ncc(C#CC(C)(C)O)cc2C1=O,-0.1,-3.3,3.2
C[C@@H]1CCCCO[C@H](CN(C)C(=O)c2ccncc2)[C@H](C)CN([C@H](C)CO)C(=O)c2cc(NS(=O)(=O)c3cn(C)cn3)ccc2O1,-1.5,-3.2,1.7
C[C@H](NC(=O)C[C@H]1CC[C@@H]2[C@H](COC[C@H](O)CN2Cc2cc(F)ccc2F)O1)c1ccccc1,-3.0,-4.4,1.5
O=C(C[C@@H]1C[C@H]2c3cc(NC(=O)Nc4ccccc4)ccc3O[C@H]2[C@@H](CO)O1)NCc1ccccc1,1.2,2.2,-1.1
COc1ccccc1NC(=O)N1C[C@H]2[C@@H](c3ccccc31)[C@H](CO)N2C(=O)c1ccccc1,-4.6,14.7,-19.4
CCCN1[C@@H]2Cn3c(ccc(-c4ccccc4F)c3=O)[C@H]1[C@@H](C(=O)NCC)[C@@H]2CO,2.5,-5.9,8.4
CO[C@H]1CN(C)C(=O)c2ccc(NC(=O)Cc3ccccc3)cc2OC[C@@H](C)N(CC2CC2)C[C@@H]1C,-1.9,-3.2,1.3
OC[C@@H]1[C@@H]2c3ccccc3NC[C@@H]2N1CC1CCCCC1,-4.0,-2.8,-1.2
O=C(C[C@@H]1CC[C@@H]2[C@H](COC[C@H](O)CN2Cc2cc(F)ccc2F)O1)N[C@@H]1CCN(Cc2ccccc2)C1,?,.,.
C[C@@H]1CN([C@@H](C)CO)S(=O)(=O)c2ccc(/C=C/c3ccccc3)cc2O[C@@H]1CN(C)C(=O)c1ccc2c(c1)OCO2,-2.5,-2.5,0.0
O=C(c1ccncc1)N1C[C@@H]2[C@H](c3ccccc31)[C@@H](CO)N2C(=O)Nc1ccccc1Cl,3.0,1.0,2.0
Cn1cnc(S(=O)(=O)N2CC[C@@H]3[C@H](CO)Nc4ccc(-c5cccc(F)c5)cc4[C@@H]32)c1,8.0,9.3,-1.3
Cc1noc(C)c1NC(=O)Nc1ccc2c(c1)C(=O)N([C@H](C)CO)C[C@@H](C)[C@@H](CN(C)Cc1ccc3c(c1)OCO3)OCCCC[C@H](C)O2,4.9,-1.5,6.4
COCC(=O)N1C[C@H]2[C@@H](c3ccccc31)[C@@H](CO)N2C(=O)NC(C)C,-1.8,-0.8,-1.0
O=C(Cc1ccccn1)NCC[C@H]1CC[C@H](NC(=O)Nc2ccc(C(F)(F)F)cc2)[C@@H](CO)O1,-4.1,-7.6,3.5
C[C@@H]1CN([C@@H](C)CO)C(=O)c2ccccc2-c2ccccc2CO[C@@H]1CN(C)S(=O)(=O)c1ccc(F)cc1,?,.,.
Cc1cccc(S(=O)(=O)N(C)C[C@@H]2OCc3cnnn3CCCC(=O)N([C@H](C)CO)C[C@H]2C)c1,-6.9,-11.1,4.2
N#C[C@H]1[C@@H](c2ccccc2-c2cccc(F)c2)[C@H](CO)N1C(=O)c1cccnc1,4.8,7.0,-2.2
COc1ccccc1C(=O)Nc1ccc2c(c1)C(=O)N(C)C[C@H](OC)[C@H](C)CN(C(C)=O)[C@@H](C)CO2,3.0,5.7,-2.7
C[C@@H]1CN([C@H](C)CO)S(=O)(=O)c2ccc(C#Cc3ccncc3)cc2O[C@H]1CN(C)S(=O)(=O)c1ccc(F)cc1,-3.7,0.2,-3.9
Cn1cnc(S(=O)(=O)N2C[C@@H](O)COC[C@@H]3O[C@H](CC(=O)NC4CCC4)CC[C@H]32)c1,-0.4,-5.5,5.1
C/C=C/c1cnc2c(c1)C(=O)N([C@@H](C)CO)C[C@@H](C)[C@@H](CN(C)Cc1ccncc1)O2,6.2,-0.2,6.4

# Quoted at random: 3 records from the list.
SMILES,DUX4 inh,DUX4 inh difference,DUX4 inh control
Cc1cccc(S(=O)(=O)N(C)C[C@@H]2OCc3cnnn3CCCC(=O)N([C@H](C)CO)C[C@H]2C)c1,-6.9,-11.1,4.2
OC[C@@H]1[C@@H]2c3ccccc3NC[C@@H]2N1CC1CCCCC1,-4.0,-2.8,-1.2
C[C@@H]1CCCCO[C@H](CN(C)S(=O)(=O)c2cccs2)[C@@H](C)CN([C@@H](C)CO)C(=O)c2cc(NC(=O)c3ccccc3)ccc2O1,0.3,3.3,-3.0

# Remaining list, next part.
SMILES,DUX4 inh,DUX4 inh difference,DUX4 inh control
O=C(NC1CCCC1)N[C@H]1C=C[C@H](CC(=O)N2CCOCC2)O[C@@H]1CO,4.4,0.1,4.3
Cc1cccc(S(=O)(=O)N2[C@@H]3CNC[C@H]2C3c2ccc(-c3cncnc3)cc2)c1 (some centres not stated),17.0,23.1,-6.2
COc1ccccc1C#Cc1ccc2c(c1)[C@@H]1[C@@H](CCN1C(=O)c1ccncc1)[C@H](CO)N2,-2.4,2.5,-4.9
O=C(C[C@H]1C=C[C@@H](NS(=O)(=O)c2cccc(F)c2)[C@@H](CO)O1)N1CCCCC1,-0.5,1.1,-1.6
CCCC#Cc1ccc2c(c1)[C@@H]1[C@@H](CCN1S(=O)(=O)c1ccccc1OC)[C@@H](CO)N2,0.1,7.7,-7.6
N#C[C@H]1[C@@H](c2ccccc2)[C@@H](CO)N1C(=O)c1cccnc1,-4.3,-6.6,2.3
CS(=O)(=O)Nc1ccc2c(c1)[C@H]1C[C@@H](CC(=O)NCc3ccc(Oc4ccccc4)cc3)O[C@@H](CO)[C@H]1O2,-0.3,3.8,-4.1
O=C(c1cccnc1)N1CC2(C1)[C@H](c1ccccc1)[C@@H](CO)N2CC1CC1,8.8,3.1,5.7
CC(C)(C)[S@](=O)N1Cc2cc(C(=O)NCc3ccccc3F)nc(-c3cccc(-c4cccnc4)c3)c2[C@@H]1CCO,0.0,4.0,-3.9
CNC[C@H]1OCCCC[C@H](C)Oc2ccc(NS(=O)(=O)c3ccc(F)cc3)cc2C(=O)N([C@@H](C)CO)C[C@@H]1C,0.8,-3.1,3.9
CNC[C@@H]1OCCCC[C@H](C)Oc2ccc(NC(=O)Cc3ccccc3)cc2C(=O)N([C@H](C)CO)C[C@@H]1C,5.1,1.0,4.1
Cn1cnc(S(=O)(=O)N2CCCCN3[C@H](C2)[C@@H](c2ccc(-c4cccc(F)c4)cc2)[C@@H]3CO)c1,?,.,.
C[C@H]1CN([C@@H](C)CO)C(=O)c2cccc(NS(=O)(=O)c3ccccc3)c2O[C@H]1CN(C)S(C)(=O)=O,1.7,0.1,1.5
CCC(=O)N1[C@H](CO)[C@@H]2c3ccccc3N(C(=O)Nc3cccc(Cl)c3)C[C@@H]21,0.7,0.4,0.3
COC(=O)[C@@H]1[C@@H](CO)[C@@H]2Cn3c(ccc(C4=CCCC4)c3=O)[C@@H]2N1C(=O)C1CCC1,-1.8,1.1,-2.9
CO[C@H]1CC[C@@H]2CCOc3c(C#N)cccc3C(=O)N(C)C[C@H](OC)[C@@H](C)C(=O)N(C)C[C@H]1O2,2.5,4.8,-2.2
O=C(Nc1ccccc1F)N1CC(=O)N2[C@@H](CO)[C@H](c3ccc(-c4ccc(F)cc4)cc3)[C@@H]2C1,0.0,-1.7,1.7
COc1ccccc1-c1ccc([C@H]2[C@@H](CO)N(C(=O)C3CC3)C23CN(C(C)=O)C3)cc1,4.1,4.3,-0.2
O=C(Nc1cccc(Cl)c1)N[C@H]1CC[C@H](CCn2cc(Cc3ccccc3)nn2)O[C@@H]1CO,?,.,.
COC(=O)[C@H]1[C@H](CO)[C@H]2Cn3c(ccc(-c4ccc(OC)cc4)c3=O)[C@H]2N1S(C)(=O)=O,2.3,9.3,-7.0
C[C@H]1CC=CC[C@@H](c2ccc(F)cc2)NC(=O)[C@H](Cc2ccccc2)N(C)C(=O)c2ccccc2O1 (mixture of isomers),-1.0,2.4,-3.4
O=C(CC(F)(F)F)N1C[C@@H]2[C@H](c3ccccc31)[C@H](CO)N2C(=O)c1ccncc1,-2.1,-6.4,4.3
O=C(C[C@@H]1C[C@H]2c3cc(NC(=O)C4CCOCC4)ccc3O[C@H]2[C@H](CO)O1)NCc1ccc2c(c1)OCO2,2.2,2.2,0.0
COc1cccc(S(=O)(=O)N2C[C@@H](O)COC[C@@H]3O[C@H](CC(=O)N4CCOCC4)CC[C@H]32)c1,5.4,-1.2,6.6
COc1ccccc1C#Cc1cnc2c(c1)C(=O)N([C@@H](C)CO)C[C@@H](C)[C@H](CN(C)C(=O)CN(C)C)O2,-1.6,2.5,-4.1

# Carrying on:
SMILES,DUX4 inh,DUX4 inh difference,DUX4 inh control
CCCNC(=O)[C@@H]1[C@@H](CO)[C@@H]2Cn3c(ccc(-c4ccccc4)c3=O)[C@@H]2N1C(=O)C1CC1,7.5,8.3,-0.8
C[C@H]1CC=CC[C@H](c2ccccc2)NC(=O)[C@H](C)N(C)C(=O)c2ccccc2O1 (mixture of isomers),-4.6,-4.7,0.0
C[C@@H]1CN([C@@H](C)CO)C(=O)c2c(c3ccccc3n2C)-c2ccccc2CO[C@H]1CN(C)C(=O)[C@@H](Cc1ccccc1)N(C)C,4.5,18.2,-13.6
CCNC(=O)C[C@@H]1CC[C@@H]2[C@H](COC[C@H](O)CN2C(=O)Nc2c(C)noc2C)O1,-0.3,-2.6,2.2
Cc1ccc(S(=O)(=O)N(C)C[C@@H]2OCCCC[C@@H](C)Oc3ccc(NC(=O)c4ccncc4)cc3C(=O)N([C@@H](C)CO)C[C@@H]2C)cc1,-1.1,-1.7,0.6
O=C(NCC(F)(F)F)[C@@H]1[C@@H](CO)[C@@H]2Cn3c(cccc3=O)[C@@H]2N1C(=O)C1CC1,-4.5,-20.4,15.9
COc1ccc2c3c(n(C)c2c1)[C@H](CO)N(C(=O)C1CC1)CC31CCN(C(=O)CN(C)C)CC1,14.0,10.8,3.2
COc1ccc2c3c(n(C)c2c1)[C@H](CO)N(C(=O)CN1CCOCC1)CC31CCN(C)CC1,12.4,6.6,5.8
O=C(C1CCC1)N1CC2(C1)[C@@H](c1ccccc1)[C@H](CO)N2C(=O)c1cccnc1,3.3,1.8,1.6
COCC(=O)N1C[C@@H]2[C@H](c3ccccc31)[C@H](CO)N2C(=O)c1ccncc1,-1.5,1.1,-2.6
C[C@H]1CN([C@@H](C)CO)C(=O)c2cc(NC(=O)CCN3CCOCC3)ccc2O[C@H]1CN(C)S(=O)(=O)c1cccs1,-2.9,-1.9,-1.1
C[C@@H]1CN([C@@H](C)CO)C(=O)Cc2cc(NC(=O)CCC(F)(F)F)ccc2O[C@@H]1CN(C)C(=O)Nc1cccc2ccccc12,-1.0,4.5,-5.5
C/C=C/c1ccc([C@H]2[C@@H](CO)N(C(=O)c3cccnc3)[C@H]2C#N)cc1,1.2,-0.4,1.6
C[C@H]1CN([C@@H](C)CO)C(=O)c2cc(/C=C/c3ccccc3)cnc2O[C@@H]1CN(C)C(=O)C1CCOCC1,1.1,2.4,-1.4
O=C(NCC1CC1)[C@@H]1[C@@H](CO)[C@@H]2Cn3c(ccc(-c4ccncc4)c3=O)[C@@H]2N1Cc1cocn1,-0.3,1.1,-1.4
CC(C)OC(=O)N(C)C[C@H]1OCc2cnnn2CCCC(=O)N([C@@H](C)CO)C[C@H]1C,1.2,0.0,1.2
COc1cccc(-c2ccc3c(c2)[C@@H]2[C@@H](CCN2S(=O)(=O)c2cn(C)cn2)[C@@H](CO)N3)c1,32.6,30.9,1.7
COCCNC(=O)C[C@@H]1C[C@H]2c3cc(NC(=O)Nc4ccc(OC)cc4)ccc3O[C@H]2[C@H](CO)O1,7.7,5.7,2.0
CN(C)CC(=O)N[C@@H]1CC[C@@H](CCNS(=O)(=O)c2ccccc2)O[C@H]1CO,-3.3,-2.9,-0.3
COc1ccc2c3c([nH]c2c1)[C@H](CO)N(C)CC31CN(C(=O)c2ccccc2F)C1,-7.3,14.0,-21.3
CC(C)NC(=O)Nc1ccc2c(c1)C(=O)N([C@H](C)CO)C[C@H](C)[C@H](CN(C)C(=O)Nc1ccc(F)cc1)O2,1.0,1.9,-0.9
CO[C@@H]1CC[C@H]2CCOc3c(C#N)cccc3C(=O)N(C)C[C@@H](OC)[C@H](C)C(=O)N(C)C[C@@H]1O2,-3.0,-6.6,3.7
COc1cccc(S(=O)(=O)Nc2ccc3c(c2)[C@@H]2C[C@@H](CC(=O)NCCc4ccccc4)O[C@@H](CO)[C@@H]2O3)c1,-8.2,-1.7,-6.5
CCCNC(=O)N1CC2(CN(Cc3ccc(F)cc3)C2)c2c([nH]c3cc(OC)ccc23)[C@H]1CO,-6.6,-19.5,13.0
CN1[C@@H]2Cn3c(ccc(C4=CCCC4)c3=O)[C@H]1[C@@H](C(=O)NC1Cc3ccccc3C1)[C@@H]2CO,-1.2,-2.2,1.0
CCNC(=O)C[C@@H]1CC[C@@H](NC(=O)C2CC2)[C@@H](CO)O1,0.2,0.5,-0.3

# Record cards (already shown).
# C[C@@H]1CN([C@@H](C)CO)C(=O)c2c(c3ccccc3n2C)-c2ccccc2CO[C@H]1CN(C)C(=O)[C@@H](Cc1ccccc1)N(C)C as listed: DUX4 inh = 4.5; DUX4 inh difference = 18.2; DUX4 inh control = -13.6
# CCCNC(=O)[C@@H]1[C@@H](CO)[C@@H]2Cn3c(ccc(-c4ccccc4)c3=O)[C@@H]2N1C(=O)C1CC1 as listed: DUX4 inh = 7.5; DUX4 inh difference = 8.3; DUX4 inh control = -0.8

# An excerpt, so the mix of outcomes need not match the whole.
